Screens: PubChem BioAssay, Broad Institute
MLL AF4-AF9 inh: MLL-AF4/AF9 protein interaction inhibition | AlphaScreen, biotin-AF4 peptide binding to FLAG-AF9 | P42568 | 350,000 tested, 0.47% active | inhibition, % at 10 µM;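 active = every replicate reaching a set inhibition limit, whatever the replicate mean, cut at about 25% in these data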;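 note: 0% = plate neutral control median and 100% = total signal loss; the record names both 10 and 1 µM as test concentration; the first replicate is given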
Target sequence (P42568 whole entry, looked up): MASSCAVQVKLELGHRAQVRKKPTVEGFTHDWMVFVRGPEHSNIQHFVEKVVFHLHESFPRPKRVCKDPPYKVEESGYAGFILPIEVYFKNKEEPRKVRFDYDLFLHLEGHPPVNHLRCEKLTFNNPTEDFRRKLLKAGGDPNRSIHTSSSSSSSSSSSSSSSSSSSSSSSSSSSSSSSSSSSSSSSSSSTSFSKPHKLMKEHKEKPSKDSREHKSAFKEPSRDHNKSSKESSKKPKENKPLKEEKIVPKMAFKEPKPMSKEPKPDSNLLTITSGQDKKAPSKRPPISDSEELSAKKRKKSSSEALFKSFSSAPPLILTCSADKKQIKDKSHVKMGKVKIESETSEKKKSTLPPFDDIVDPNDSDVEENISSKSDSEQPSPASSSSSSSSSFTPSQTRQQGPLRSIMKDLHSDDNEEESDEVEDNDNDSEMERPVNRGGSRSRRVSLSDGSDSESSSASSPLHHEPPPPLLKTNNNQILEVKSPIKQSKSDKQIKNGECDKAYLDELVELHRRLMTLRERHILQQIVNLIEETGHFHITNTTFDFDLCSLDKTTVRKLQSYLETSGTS
Numbers without * were called inactive. An excerpt; the hit share may differ from the screen's.

SMILES | MLL AF4-AF9 inh
COc1ccc(NC(=O)N(C)C[C@@H]2Oc3c(NC(=O)C4CCOCC4)cccc3C(=O)N([C@@H](C)CO)C[C@H]2C)cc1 | -13.0
C[C@@H]1CN([C@@H](C)CO)C(=O)c2cc(NC(=O)Cc3cn(C)c4ccccc34)ccc2O[C@H]1CN(C)C | -4.6
COc1cc(OC)cc(C(=O)N2CCN(S(=O)(=O)c3ccc4c(c3)OCCO4)CC2)c1 | -0.9
O=C(C[C@@H]1CC[C@H]2[C@@H](COC[C@@H](O)CN2C(=O)C2CC2)O1)NCc1ccccc1Cl | -3.7
O=C(Nc1ccc2c(c1)[C@@H]1C[C@H](CC(=O)N3CCCCC3)O[C@H](CO)[C@@H]1O2)Nc1ccccc1F | -2.8
COc1ccc2c3c(n(C)c2c1)[C@H](CO)N(Cc1ccccc1F)CC31CN(C(C)=O)C1 | 1.4
NS(=O)(=O)c1ccc(N2C(=O)CCCC2=O)cc1 | -1.2
CCCNC(=O)Nc1ccc2c(c1)C(=O)N(C)C[C@H](OC)[C@H](C)CN[C@H](C)CO2 | -0.7
Cn1c(=O)c2cc(NC(=O)NCc3ccc(Cl)cc3Cl)ccc2n1Cc1ccccc1 | 3.6
CCNC(=O)C1(C)CCN(C(=O)c2c(-c3ccccc3)noc2C)C1 (stereo not given) | -3.5
CC(C)C[C@H]1CN(CCCC[C@H]2CNC(=O)C(=O)N2CCc2ccccc2)C(=O)C(=O)N1CC1CCCCC1 | 1.5
O=C(C[C@H]1CC[C@H]2[C@@H](COC[C@H](O)CN2Cc2cccc(F)c2)O1)NCCc1ccncc1 | -0.4
COc1ccc(S(=O)(=O)Nc2ccc3c(c2)C(=O)N([C@@H](C)CO)C[C@@H](C)[C@@H](CN(C)C(=O)C2CCCCC2)OCCCC[C@H](C)O3)cc1 | 2.5
C[C@@H]1CN([C@@H](C)CO)C(=O)c2cc(NS(=O)(=O)c3ccc(F)cc3)ccc2O[C@@H](C)CCCCO[C@@H]1CN(C)C(=O)c1ccccc1 | 0.3
COCC#Cc1ccc2c(c1)O[C@H](CN(C)C(=O)CC1CC1)[C@@H](C)CN([C@@H](C)CO)S2(=O)=O | -3.5
CCCNC(=O)N1CC2(CN(S(C)(=O)=O)C2)c2c(n(C)c3cc(OC)ccc23)[C@@H]1CO | -7.3
CC=Cc1ccc2n(c1=O)C[C@H]1[C@H](CO)[C@@H](C(=O)NCCc3cn(C)cn3)N(C(=O)C3CCCC3)[C@@H]21 (mixture of isomers) | -3.2
Cc1noc(C)c1S(=O)(=O)Nc1ccc2c(c1)C(=O)N([C@@H](C)CO)C[C@H](C)[C@H](CN(C)C(=O)Nc1ccccc1)O2 | -5.9
C[C@H](CO)N1C[C@H](C)[C@@H](CN(C)C(=O)c2cnccn2)Oc2cc(C3=CCCC3)ccc2S1(=O)=O | -1.2
CO[C@H]1CN(C)C(=O)c2ccc(NC(=O)c3ccccc3F)cc2OC[C@@H](C)N(C(=O)c2ccccc2F)C[C@@H]1C | -1.4

Gathered by group: those above with a Cl atom (two)
SMILES | MLL AF4-AF9 inh
O=C(C[C@@H]1CC[C@H]2[C@@H](COC[C@@H](O)CN2C(=O)C2CC2)O1)NCc1ccccc1Cl | -3.7
Cn1c(=O)c2cc(NC(=O)NCc3ccc(Cl)cc3Cl)ccc2n1Cc1ccccc1 | 3.6

Remaining list, next part.
SMILES | MLL AF4-AF9 inh
CCN1[C@@H]2Cn3c(ccc(-c4ccncc4)c3=O)[C@H]1[C@@H](C(=O)Nc1ccccc1)[C@@H]2CO | -10.9
CO[C@H]1CN(C)C(=O)c2ccc(NC(=O)c3cc(C)on3)cc2OC[C@H](C)N(C(C)=O)C[C@H]1C | -0.2
C[C@@H]1CN([C@@H](C)CO)C(=O)c2cc(NC(=O)Cn3cnnn3)ccc2O[C@@H]1CN(C)Cc1ccc2c(c1)OCO2 | 1.6
CC(=O)Nc1ccc2c(c1)C(=O)N(C)[C@@H]1CC[C@H](CC(=O)NCc3ccc(Cl)cc3)O[C@H]1CO2 | 0.7
Cc1ccc(S(=O)(=O)N(C)C[C@@H]2OCCCC[C@H](C)Oc3ccc(NS(=O)(=O)c4ccc(F)cc4)cc3C(=O)N([C@H](C)CO)C[C@H]2C)cc1 | -1.2
COc1ccc(C#Cc2ccc([C@@H]3[C@H]4CN(C(=O)Nc5ccccc5)CCCCN4[C@H]3CO)cc2)cc1 | -6.3
O=C(c1cccc(F)c1)N1C[C@@H]2[C@H](c3ccccc31)[C@H](CO)N2C(=O)c1ccccn1 | -4.2
C[C@H]1CN([C@@H](C)CO)S(=O)(=O)c2ccc(C#Cc3ccccc3)cc2O[C@@H]1CN(C)S(C)(=O)=O | -11.8
O=C(C[C@H]1CC[C@H](NC(=O)Nc2ccc(C(F)(F)F)cc2)[C@@H](CO)O1)NCc1cc(F)cc(F)c1 | 0.0
O=C(Cc1ccccn1)N[C@@H]1CC[C@@H](CCn2cc(-c3ccccc3)nn2)O[C@@H]1CO | 2.1
CCCCn1nnnc1C(c1cc2ccccc2o1)N1CCN(c2ncccc2C#N)CC1 (stereo not given) | -3.8
COc1ccc(OCCCC(=O)OCC(=O)N2CCN(S(=O)(=O)c3ccc(C)cc3C)CC2)cc1 | -2.2
COCC(=O)NC[C@@H]1[C@H](c2ccccc2)[C@H](CO)N1C(=O)c1ccccc1 | -3.0
O=C(c1cccnc1)N1CC2(C1)[C@@H](c1ccccc1)[C@@H](CO)N2Cc1cccnc1 | 0.3
O=C(C[C@@H]1C=C[C@@H](NS(=O)(=O)c2ccc(F)cc2)[C@@H](CO)O1)N1CCN(c2ccccc2)CC1 | -1.2
CCNC(=O)C1CCCN(C(=O)c2ccccc2)CC1 (stereo not given) | -0.7
CO[C@H]1CN(C)C(=O)c2cc(NC(=O)c3ccc(F)cc3)ccc2OC[C@@H](C)N(C(C)=O)C[C@H]1C | 3.1
CC(C)[C@H](C)NC(=O)N(C)C[C@@H]1OCc2ccccc2-c2ccccc2C(=O)N([C@H](C)CO)C[C@@H]1C | -4.0
Cc1noc(C)c1NC(=O)Nc1ccc2c(c1)C(=O)N([C@@H](C)CO)C[C@@H](C)[C@H](CN(C)C(=O)NC1CCCCC1)OCCCC[C@@H](C)O2 | -1.2
CCC(=O)N(C)C[C@@H]1Oc2cc(C#C[C@H](C)O)ccc2S(=O)(=O)N([C@H](C)CO)C[C@H]1C | -10.7
CO[C@@H]1CN(C)C(=O)c2cc(NC(=O)Nc3ccccc3)ccc2OC[C@@H](C)N(C(=O)CN(C)C)C[C@H]1C | 1.0
Cc1ccc(S(=O)(=O)N[C@@H]2CC[C@@H](CC(=O)NCCCN(C)C)O[C@H]2CO)cc1 | -23.5
CN(C)C(=O)C1=NOC2(C1)C(=O)Nc1ccccc12 (stereo not given) | -4.8
CN1c2ccc(-c3cccc(C#N)c3)cc2[C@H]2[C@H](CCN2C(=O)C2CC2)[C@@H]1CO | -1.9
COc1ccc(S(=O)(=O)N[C@H]2CC[C@H](CC(=O)N3CCN(c4ccccc4)CC3)O[C@@H]2CO)cc1 | 3.2
COCC#Cc1cnc2c(c1)C(=O)N([C@@H](C)CO)C[C@H](C)[C@@H](CN(C)C)O2 | -2.4
Cc1noc(C)c1NC(=O)Nc1ccc2c(c1)C(=O)N([C@@H](C)CO)C[C@@H](C)[C@@H](CN(C)Cc1ccncc1)O2 | -1.8
CSc1ncnc2c1ncn2CCCNCC1CCCO1 (stereo not given) | -1.6
CC(C)C#Cc1ccc2c(c1)O[C@@H](CN(C)S(C)(=O)=O)[C@H](C)CN([C@@H](C)CO)S2(=O)=O | 0.6
COc1ccc(CN(C)C[C@H]2Oc3ccc(NC(=O)Nc4cccc5ccccc45)cc3CC(=O)N([C@H](C)CO)C[C@H]2C)cc1 | -1.3
C[C@@H]1CN([C@@H](C)CO)S(=O)(=O)c2ccc(C#CC3(O)CCCC3)cc2O[C@@H]1CN(C)C | -1.3
C[C@@H]1CN([C@@H](C)CO)C(=O)c2cc(-c3ccccc3F)cnc2O[C@H]1CN(C)C(=O)C1CCCCC1 | -2.4
CC(C)[C@@H]1NC(=O)[C@@H]2CSCCS(=O)(=O)N2C1=O | 1.1
Cc1ccccc1S(=O)(=O)N[C@@H]1CC[C@@H](CCNS(=O)(=O)c2cccc(F)c2)O[C@H]1CO | 0.0
COC(=O)C1=C(C)N(Cc2ccc(Br)cc2)C(=S)NC1c1ccccc1 (stereo not given) | 0.5
COC(=O)c1ccc2nc(-c3ccc(C)cc3)c(Cc3ccccc3OC)n2c1 | -1.4
COCC(=O)N(C)C[C@H]1Oc2cc(-c3ccc(F)cc3)ccc2S(=O)(=O)N([C@H](C)CO)C[C@@H]1C | 0.2
C[C@@H]1CN([C@H](C)CO)C(=O)Cc2cc(NC(=O)Nc3ccc4c(c3)OCO4)ccc2O[C@H]1CN(C)CC1CC1 | 2.4
O=C(C[C@H]1C[C@@H]2c3cc(NC(=O)Nc4ccc(C(F)(F)F)cc4)ccc3O[C@@H]2[C@@H](CO)O1)NCc1cccnc1 | 9.5
C[C@@H]1CN([C@@H](C)CO)C(=O)Cc2cc(NS(=O)(=O)c3ccc(F)cc3)ccc2O[C@@H]1CN(C)C(=O)Nc1ccccc1 | -1.3
COc1ccc(NC(=O)N(C)C[C@@H]2Oc3ccc(NS(=O)(=O)c4ccccc4)cc3C(=O)N([C@@H](C)CO)C[C@@H]2C)cc1 | 1.2
C[C@H]1CN([C@@H](C)CO)S(=O)(=O)c2ccc(-c3ccncc3)cc2O[C@@H]1CN(C)C(=O)CN(C)C | -1.0
Cc1ccc(S(=O)(=O)N2C[C@H]3C(=O)C[C@@H](c4ccccc4F)N(S(=O)(=O)c4ccc(C)cc4)[C@H]3C[C@H]2c2ccccc2F)cc1 | -0.5
CCC(=O)Nc1ccc2c(c1)C(=O)N(C)C[C@@H](OC)[C@H](C)CN(CCc1ccccc1)[C@H](C)CO2 | 1.4
CCCS(=O)(=O)NC(=O)C1(C)CCCN(C(=O)c2cc(-c3cccs3)oc2C)C1 (stereo not given) | -1.8
CN1C(=O)c2cc(NC(=O)C3CCOCC3)ccc2OC[C@H]2O[C@@H](CC(=O)NCC3CCCCC3)CC[C@H]21 | -1.8
Cc1ccc([C@@H]2CC(=O)[C@@H]3CN(S(=O)(=O)c4ccc(C)cc4)[C@H](c4ccccc4F)C[C@@H]3N2S(=O)(=O)c2ccc(C)cc2)cc1 | -4.5
COCC(=O)N1C[C@@H](C)[C@H](OC)CN(C)C(=O)c2cc(NC(=O)C3CCC3)ccc2OC[C@@H]1C | -1.1
Cc1noc(C)c1NC(=O)Nc1ccc2c(c1)CC(=O)N([C@H](C)CO)C[C@H](C)[C@@H](CN(C)S(=O)(=O)c1cccs1)O2 | 1.2
O=C(Cc1ccc(NC(=O)C2CCCN(C(=O)CCc3ccccc3)C2)cc1)Nc1cccc(C(=O)N2CCCC2)c1 (stereo not given) | -3.2
O=C(c1[nH]c(C(F)(F)F)nc1-c1ccccc1)N1CCN(C/C=C/c2ccccc2)CC1 | -1.2
O=C(c1cnccn1)N1CC(=O)N2[C@H](C1)[C@H](c1ccc(C#CC3CCCCC3)cc1)[C@@H]2CO | 5.2
O=C(C[C@H]1C[C@@H]2c3cc(NC(=O)c4ccc5c(c4)OCO5)ccc3O[C@@H]2[C@H](CO)O1)NCC(F)(F)F | -5.7
CO[C@H]1CN(C)C(=O)c2cc(NC(=O)Cc3ccccc3)ccc2OC[C@@H](C)N(C(=O)c2ccccc2F)C[C@@H]1C | -0.3
O=C(Nc1cccc(Cl)c1Cl)c1csc([C@H]2C[C@H](O)[C@@H](CO)O2)n1 | 0.3
CNC[C@@H]1Oc2c(NC(=O)Nc3c(C)noc3C)cccc2C(=O)N([C@@H](C)CO)C[C@H]1C | -2.6
C[C@@H]1CN([C@@H](C)CO)S(=O)(=O)c2ccc(-c3cccc(F)c3)cc2O[C@@H]1CN(C)CC1CC1 | 1.8
C[C@@H]1CN([C@H](C)CO)C(=O)c2cc(NC(=O)Cc3cn(C)c4ccccc34)ccc2O[C@H]1CN(C)Cc1ccccc1 | 6.6
COc1ccc(CNC(=O)C[C@H]2CC[C@@H](NC(=O)CN(C)C)[C@H](CO)O2)cc1 | -1.2
O=C(NCC[C@@H]1CC[C@@H](NS(=O)(=O)c2ccc(F)cc2)[C@@H](CO)O1)Nc1ccc(Cl)cc1 | 5.8

Given as comma-separated lines: entries from further up.
Molecule,MLL AF4-AF9 inh
O=C(Nc1cccc(Cl)c1Cl)c1csc([C@H]2C[C@H](O)[C@@H](CO)O2)n1,0.3
CNC[C@@H]1Oc2c(NC(=O)Nc3c(C)noc3C)cccc2C(=O)N([C@@H](C)CO)C[C@H]1C,-2.6

Additional compounds.
SMILES | MLL AF4-AF9 inh
COc1ccc(NC(=O)N(C)C[C@@H]2Oc3ccc(NC(=O)CCCN(C)C)cc3C(=O)N([C@H](C)CO)C[C@H]2C)cc1 | 0.1
COc1ccccc1-c1cn(CC[C@H]2CC[C@H](NC(=O)C3CCC3)[C@H](CO)O2)nn1 | 0.8
O=C(NCCCCO)c1c(-c2ccccc2)oc2c1C(OCCCCCO)CCC2 (stereo not given) | -0.9
C[C@@H]1CN([C@H](C)CO)C(=O)c2cc(C#C[C@@H](C)O)cnc2O[C@@H]1CN(C)Cc1cncnc1 | -3.0

In the list so far, 2 contain a thiophene ring, fused or not.
SMILES | MLL AF4-AF9 inh
CCCS(=O)(=O)NC(=O)C1(C)CCCN(C(=O)c2cc(-c3cccs3)oc2C)C1 (stereo not given) | -1.8
Cc1noc(C)c1NC(=O)Nc1ccc2c(c1)CC(=O)N([C@H](C)CO)C[C@H](C)[C@@H](CN(C)S(=O)(=O)c1cccs1)O2 | 1.2
